VDR inhibitor – vitamin D3 receptor (human) inhibition. P11473. VDR-SRC2-3 peptide fluorescence polarization, 2 h. Potency, µM, without a hit: max response, negative = inhibition, usual class: inhibitors. actives 0.93% (n = 400,000). AID 504847; active = well fitted inhibition curve with a large enough effect; note: series mostly up to about 120 µM
Target sequence (P11473 whole entry, looked up): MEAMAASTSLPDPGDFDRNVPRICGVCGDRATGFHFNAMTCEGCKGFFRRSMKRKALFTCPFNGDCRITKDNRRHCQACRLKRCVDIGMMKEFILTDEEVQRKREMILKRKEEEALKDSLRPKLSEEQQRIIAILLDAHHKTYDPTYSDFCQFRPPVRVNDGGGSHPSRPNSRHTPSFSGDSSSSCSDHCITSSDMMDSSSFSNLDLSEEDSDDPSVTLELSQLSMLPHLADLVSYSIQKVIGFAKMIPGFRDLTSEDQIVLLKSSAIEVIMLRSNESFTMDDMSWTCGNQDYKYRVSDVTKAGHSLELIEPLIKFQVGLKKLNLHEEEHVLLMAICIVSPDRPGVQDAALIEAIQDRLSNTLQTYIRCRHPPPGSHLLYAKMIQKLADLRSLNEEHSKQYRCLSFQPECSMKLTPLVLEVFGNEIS
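Signal is fluorescence polarization, reporting how far test compounds block the interaction of VDR with the SRC2-3 coregulator peptide after a 2 h room-temperature incubation.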
* hit, by the source's call; & = joins results of further samples. % is set by controls: 0 for no effect and ±100 for the full control effect; potency is the fitted concentration of half-maximal effect.

VDR inhibitor	compound
24.4%	O=C(NC1CCCC1)C(c1cccs1)N(C(=O)c1csnn1)c1ccccc1F (centres undefined)
8.1%	Cc1ccccc1N1CCN(S(=O)(=O)CC23CCC(CC2=O)C3(C)C)CC1 (centres undefined)
16.5%	CCCNc1ccc(S(=O)(=O)N(CC)CC)cn1
-6.9%	O=C(CSc1ncn(-c2ccccc2)n1)NCc1ccccc1
9.8%	CCOC(=O)C(NC(=O)CC)C(O)c1cccc([N+](=O)[O-])c1 (centres undefined)
-1.7%	C=CCNc1ncnc2c1[nH]c1ccccc12
-5.7%	CCOc1ccccc1-n1c(C)cc(C=O)c1C
8.8%	CCC(=O)C1=C(c2ccc(OC)c(OC)c2)N(C(=O)CC)n2c(CC)nnc2S1
-12.5%	CCCN(CCC)c1nc(N)nc(-c2cc(Cl)ccc2OC)n1
-16.6%	O=C(CNC(=O)c1ccc2ccccc2c1)NCc1ccc(F)cc1

Quoted from the listing:
VDR inhibitor result of O=C(CNC(=O)c1ccc2ccccc2c1)NCc1ccc(F)cc1 stands at -16.6%
VDR inhibitor result of O=C(NC1CCCC1)C(c1cccs1)N(C(=O)c1csnn1)c1ccccc1F (centres undefined) stands at 24.4%
VDR inhibitor result of C=CCNc1ncnc2c1[nH]c1ccccc12 stands at -1.7%
VDR inhibitor result of CCOc1ccccc1-n1c(C)cc(C=O)c1C stands at -5.7%
VDR inhibitor result of O=C(CSc1ncn(-c2ccccc2)n1)NCc1ccccc1 stands at -6.9%
VDR inhibitor result of CCOC(=O)C(NC(=O)CC)C(O)c1cccc([N+](=O)[O-])c1 (centres undefined) stands at 9.8%
VDR inhibitor result of Cc1ccccc1N1CCN(S(=O)(=O)CC23CCC(CC2=O)C3(C)C)CC1 (centres undefined) stands at 8.1%

(cont.)
VDR inhibitor	compound
2.0%	COC(=O)c1ccc(NC(=O)CN2C(=O)c3ccccc3S2(=O)=O)cc1
-9.6%	Cc1ccc(CNC(=O)C2CCCN(S(=O)(=O)c3cccc4nsnc34)C2)cc1 (centres undefined)
1.8%	CCOc1ccc(C2SCC(=O)N2c2c(C)n(C)n(-c3ccccc3)c2=O)cc1 (centres undefined)
12.4%	CC(=O)N1c2ccc(S(=O)(=O)N3CCC(C(=O)N4CCC(C)CC4)CC3)cc2CC1C (centres undefined)
2.7%	O=C(CNC(=O)c1ccncc1)N/N=C/c1ccc(O)cc1O
-3.5%	CCCC/C(O)=C1\C(=O)CC(C)(C)CC1=Nc1ccccc1OC
-3.3%	Cc1ccccc1Cn1c(CCCNC(=O)C2CCCCC2)nc2ccccc21
15.9%	Cn1cc(CN2CCCC(C(=O)Nc3cccc(-c4cc5ccccc5[nH]4)c3)C2)cn1 (centres undefined)
5.2%	CCN(C(=O)COC(=O)c1cc2ccccc2cc1OC)c1c(N)n(Cc2ccccc2)c(=O)[nH]c1=O
4.8%	COC(=O)c1sc2ccccc2c1NC(=O)c1ccc(S(=O)(=O)N2CC(C)CC(C)C2)cc1 (centres undefined)
-13.9%	Cc1ccc(C(=O)Nc2cccnc2)cc1Cl
-9.4%	CC(=O)c1ccc(N2CCN(C(=O)c3ccc(Br)cc3)CC2)c(F)c1
6.5%	OC(C#CCN1CCCC1)c1ccccc1 (centres undefined)
19.3%	O=C(O)c1ccc2c(=O)n3c(nc2c1)/C(=C/c1ccc(Cl)cc1Cl)CC3
-2.2%	CCCNC(=O)C1(CC2CC(c3ccccc3)=NO2)CCN(C(=O)Cc2ccc(F)cc2)CC1 (centres undefined)
10.0%	CCOc1ccc(C(=O)OCC(=O)N2CCCC2)cc1
-7.6%	OCCN1CCOCCOc2ccccc2OCCOCC1
6.1%	O=c1c2c([nH]c3ccccc13)C(=C1CCCC1)CC2
-7.0%	CCOC(=O)[C@@H]1[C@H]2COc3ccccc3[C@@H]2N2C(=O)N(c3cccc(C)c3)C(=O)[C@@]12C
-10.4%	Cc1ccc(/C=N/N2CCN(Cc3ccccc3)CC2)cc1
-12.2%	COc1ccccc1NC(=O)CSc1nccn1Cc1ccccc1
-0.3%	O=C(NC1CC1)c1ccc(CS(=O)c2ccc(Br)cc2)o1 (centres undefined)
-19.5%	O=C(C1=C[C@H](c2csc3ccccc23)C[C@H](OCc2ccc(CO)cc2)O1)N1CCN(Cc2ccc3c(c2)OCO3)CC1
8.0%	CC(=O)c1c(C)[nH]c(C(=O)Nc2ccc(Cl)c(S(=O)(=O)N(C)C)c2)c1C
-6.6%	CC(C)(CNC(=O)c1ccc(-c2cccc(C(F)(F)F)c2)o1)N1CCOCC1
-2.6%	N/C(=N\OC(=O)c1ccc(Cl)cc1Cl)c1ccccc1
-4.4%	COc1ccc(OC)c(C(=O)NC(CC(N)=O)c2ccc(NC(C)C)c([N+](=O)[O-])c2)c1 (centres undefined)
-16.9%&16.9%	Cc1ccc(NC(=O)C(C)Sc2nc(=O)cc(N)n2-c2ccccc2)cc1 (centres undefined)
-6.2%	CC(OC(=O)CCC(=O)c1cccs1)C(=O)Nc1ccccc1[N+](=O)[O-] (centres undefined)
-14.7%	CC(=O)C(=Cc1cc(C)n(-c2ccccc2)c1C)C(C)=O
-4.0%	COc1ccc(NS(=O)(=O)c2ccc3[nH]c4c(c3c2)CCCC4)cc1OC
-9.1%	O=C1Cc2cc(S(=O)(=O)N3CCCCC3)ccc2N1
-11.0%	Cc1ccc(C#N)c(SCc2cc3c(cc2Cl)OCO3)n1
-20.9%	CCOc1cc(C(=S)N2CCCC2)ccc1OC
8.6%	CCOC(=O)c1nnn(-c2nonc2-n2cccc2)c1CN1CCC(C(=O)OCC)CC1
10.1%	O=C(N/N=C/c1ccoc1)c1cccc([N+](=O)[O-])c1
-0.4%	O=C(CN1C(=O)C2CC=C(Cl)CC2C1=O)Nc1ccc(C(=O)O)cc1 (centres undefined)
2.3%	O=C(Nc1nc2n(n1)C(c1ccccc1)C=C(c1ccccc1)N2)c1ccco1 (centres undefined)
-0.9%	Cc1ccc(C)c(S(=O)(=O)c2nnn3c2nc(NCc2ccc4c(c2)OCO4)c2sccc23)c1
29.6%	O=C(CC12CC3CC(CC(C3)C1)C2)N1CCCOC1

Arranged by formula weight (highest first): part of the list above.
VDR inhibitor	compound
8.6%	CCOC(=O)c1nnn(-c2nonc2-n2cccc2)c1CN1CCC(C(=O)OCC)CC1
-4.0%	COc1ccc(NS(=O)(=O)c2ccc3[nH]c4c(c3c2)CCCC4)cc1OC
2.3%	O=C(Nc1nc2n(n1)C(c1ccccc1)C=C(c1ccccc1)N2)c1ccco1 (centres undefined)
-20.9%	CCOc1cc(C(=S)N2CCCC2)ccc1OC
29.6%	O=C(CC12CC3CC(CC(C3)C1)C2)N1CCCOC1

More entries.
VDR inhibitor	compound
4.9%	COC(=O)NNC(=O)COc1ccccc1C
-25.5%	O=C(C[C@H]1C/C=C\C[C@H](NC(=O)OCC2c3ccccc3-c3ccccc32)C(=O)OC[C@@H]2CCCN2C1=O)N[C@H](CO)Cc1ccccc1
-3.8%	CCOc1ccc(S(=O)(=O)N2CCC(C(=O)NCc3ccccn3)CC2)cc1C
-13.7%	COc1cc(CCCN2CCNC[C@@H]2C(C)O)cc(OC)c1OC (some centres undefined)
2.0%	CCN(CC)CCNC(=O)c1cc2c(s1)-c1ccccc1SC2
-22.1%&-7.6%	Nc1ccccc1S(N)(=O)=O
-11.5%	O=C(O)Cn1c(-c2ccccn2)nc2ccccc21
15.4%	O=c1[nH]c(Cc2ccccc2)nc2c1oc1ccccc12
15.0%	O=C(O)CCCCCCCCCCP(=O)(c1ccccc1)c1ccccc1
0.1%	COc1ccccc1Cn1c(=O)c2ccccc2n2c(Sc3ncnc4sccc34)nnc12
-3.1%	N/C(Cc1ccccc1)=N\OC(=O)c1cccc2ccccc12
-8.0%	O=C(O)c1cccc(NC(=O)c2cn(-c3ccccc3)nc2-c2cccc(Br)c2)c1
12.6%	CCOc1ccc(C(=O)Nc2nc(-c3ccc(Br)cc3)ns2)cc1
-3.9%	CC(=O)c1ccc(OCc2cc(C(=O)NCC3CCCCO3)no2)cc1 (centres undefined)
-2.3%	Cc1cc(OCCCn2c(CCNC(=O)C3CCCCC3)nc3ccccc32)ccc1Cl
6.1%	O=C(CCn1c(=O)c2cccn2c2cccnc21)NCc1ccccc1F
-8.8%	CCc1ccc(NC(=O)C(=O)NCC(O)c2ccccc2)cc1 (centres undefined)
-14.1%	O=C(CS(=O)(=O)Cc1ccccc1)N1CCN(c2cccc(C(F)(F)F)c2)CC1
-4.8%	O=C(Cc1ncc(C(F)(F)F)cc1Cl)Nc1cccc(Br)c1
-7.5%	CNc1nc(C)c(C(=O)OCc2ccccc2)s1
5.6%	CC(=O)OC(C(=O)NCCN1CCOCC1)c1c(F)cccc1F (centres undefined)
-0.8%	NS(=O)(=O)c1ccc(NC(=O)CSc2n[nH]c(=O)n2Cc2ccccc2)cc1
11.3%	COc1ccc(C/C(N)=N/OC(=O)c2cccc([N+](=O)[O-])c2)cc1
-2.9%	CC(OC(=O)C1CC(=O)N(Cc2ccccc2)C1)C(=O)Nc1cccc(C#N)c1 (centres undefined)
14.6%	Cc1ccc(OC(F)F)c(NC(=O)Nc2cccc(C(F)(F)F)c2)c1
-17.5%	Cc1cc(NC(=O)c2c(Br)c(C)nn2C)no1
8.5%	CCOc1ccc(-c2[nH]nc3c2C(c2cccnc2)C(C#N)=C(N)O3)cc1 (centres undefined)
6.6%	O=C(NC(Cc1cc(=O)[nH]c2ccccc12)C(=O)O)c1ccc(Cl)cc1 (centres undefined)
-20.6%	C=CCN1C(=O)C(=O)N(CC(=O)NCC(=O)Nc2ccc(F)c(F)c2F)C1=O
3.1%	O=C(COC(=O)c1cc(S(=O)(=O)N2CCOCC2)ccc1O)NCC1CCCO1 (centres undefined)
1.3%	O=C(NC1CCCC1)c1cc2ccccc2o1
-14.4%	CC(C)Cn1c(N)c(C(=O)COC(=O)c2ccc([N+](=O)[O-])o2)c(=O)n(C)c1=O
4.1%	CCc1cccc(C)c1NS(=O)(=O)c1ccc(-c2cc(C)no2)s1
-7.4%	Cc1ccc(NC(=O)COc2ncnc3cc([N+](=O)[O-])ccc23)cc1S(=O)(=O)N1CCOCC1
-1.7%	COc1cccc(CN2CCNC(=O)C2CC(=O)NCc2cn3ccccc3n2)c1OC (centres undefined)
16.2%	CCCCc1c(O)nc(SCC(=O)c2ccccc2)n(-c2ccccc2OC)c1=O
-15.4%	O=C(CCN=C1NS(=O)(=O)c2ccccc21)Nc1ccc(Cl)cc1F
17.6%	CS(=O)(=O)c1ccc(C(=O)N2CC(=O)Nc3ccccc32)cc1
-8.9%	O=C(Cc1coc2cc3c(cc12)CCC3)OCC(=O)N1CCCC1=O
4.4%	COc1ccccc1C(=O)Nc1c(C(=O)N2CCN(c3ccc(F)cc3)CC2)oc2ccccc12
6.1%	COc1ccc(Cl)cc1Nc1nc(N)nc(C(F)(F)F)n1
-3.1%	O=c1oc(Nc2cccc(F)c2)nc2ccccc12
-9.1%	Cc1ccc(NC(=O)c2ccc(OCC3CCCO3)cc2)c(C)c1 (centres undefined)
10.2%	COc1ccc(NC(=O)C(=O)NCC2(c3ccc(OC)c(OC)c3)CCCC2)cc1
-10.0%	Cc1ccc(-c2cn3cccnc3n2)cc1NC(=O)C(C)(C)Oc1ccc(Cl)cc1
-17.3%	CNC(=O)Cn1nc(C)c(S(=O)(=O)N2CCOCC2)c1C
-29.9%	O=C(O)c1ccc(N/N=C/c2cn(Cc3ccccc3F)c3ccccc23)cc1
-7.9%	O=C(NC1CCN(S(=O)(=O)c2ccc(Cl)cc2)CC1)c1cccnc1
-5.0%	COCCCNC(=O)CCn1c(=O)c2ccccc2n(Cc2cccc([N+](=O)[O-])c2)c1=O
-0.7%	N#Cc1nc(Cc2cccc3ccccc23)oc1NCCCn1ccnc1

(listing goes on)
VDR inhibitor	compound
17.9%	CC(=O)c1ccc(N2CCN(C(=O)c3cccc(Oc4ccccc4)c3)CC2)cc1
-6.4%	Cc1cccc(NC(=O)CCN2CC(C)CC(C)C2)c1 (centres undefined)
-16.6%	CC(C)(C)OC(=O)NCCCC1=CC2=CC(=O)C(C)(OC(=O)c3cccs3)C(=O)C2=CO1 (centres undefined)
-1.9%	C[Si](C)(C/C=C/CC[C@H](O)C1=CCCCC1=O)c1ccccc1
17.3%	Cc1cc(OC(C)C)nc(-c2ccccc2O)n1
-5.4%	CCCN1C(=O)/C(=C/c2nc3ccccc3c(=O)[nH]2)c2ccccc21
-12.2%	CCOc1cc(C(=O)Nc2ccc(F)cc2)cc(Br)c1OC
2.1%	O=C(NCCc1c[nH]c2ccccc12)c1cncc(Br)c1
-8.1%	CCO[C@@H]1OC(C(=O)O)=C[C@H](c2ccc(C(F)(F)F)cc2)[C@H]1CCCO
-4.3%	COc1ccc(NC(=O)CSc2nc(-c3ccco3)nc3cc(=O)[nH]n23)cc1Cl
-19.0%	CCOC(=O)c1c(NC(=O)C2=C(C)NC(=S)NC2c2ccc(F)cc2F)sc(C)c1C (centres undefined)
9.7%	Cc1ccc(S(C)=O)cc1-n1c(=O)n(Cc2ccccc2)c(=O)c2[nH]cnc21 (centres undefined)
-15.5%	COc1ccccc1-n1nnnc1SCc1cc2c(cc1Br)OCO2
2.3%	O=C(Cn1ccc2cc(S(=O)(=O)N3CCCC3)ccc21)NCc1ccccc1
12.6µM*	O=C(CCS(=O)(=O)c1nc(-c2ccc3c(c2)OCO3)cc(C(F)(F)F)n1)Nc1ccc(Br)cc1
-14.0%	Cc1cccnc1NC(=O)c1ccc(OCC2CCCO2)cc1 (centres undefined)
6.4%	O=C(COc1ccccc1C(=O)O)Nc1cccc2ccccc12
-5.1%	CC(CCc1ccccc1)NC(=O)C1CCC1 (centres undefined)
-6.7%	Cc1ccc(S(=O)(=O)c2nc(Nc3ccccc3N3CCOCC3)sc2Cl)cc1
1.6%	CC(=O)Nc1ccc(S(=O)(=O)NCCC(=O)OCc2csc(CC(=O)Nc3ccccc3C)n2)cc1
8.5%	CCOc1ccc(S(=O)(=O)NCc2ccc3c(c2)OCO3)cc1
-6.3%	CCOC(=O)N1CCC(NC(=O)c2cc(C(=O)NCc3ccc(F)cc3)ccc2CO)CC1
0.8%	Cc1onc2c(=O)n(-c3ccccc3)nc(-c3ccccc3)c12

This is a subset, so the mix of outcomes need not match the whole.
